Yeast UUG start: yeast start codon fidelity modulation | S. cerevisiae UUG-firefly luciferase reporter, luminescence/redox ratio | activity score, % at 18.7 µM | 350,000 tested, 0.13% active | AID 602363;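 active = replicate mean at a twofold rise or more, about +100% in these data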;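 note: firefly luciferase made from a UUG start codon reports start codon fidelity; reporter light over untreated wells divided by growth signal over untreated wells; some hits fall short of that in this replicate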
An asterisk follows results filed as active. The list is partial; the hit share may differ from the screen's.

Start of the data: the first five entries as a preview:
SMILES	Yeast UUG start
COc1ccc(S(=O)(=O)N(C)C[C@H]2OCc3ccccc3-c3c(n(C)c4ccccc34)C(=O)N([C@H](C)CO)C[C@@H]2C)cc1	4
COc1ccc(C#Cc2ccc([C@H]3[C@@H](CO)N4CCCCN(C)C[C@@H]34)cc2)cc1	-4
Cc1ccc(S(=O)(=O)N(C)C[C@@H]2Oc3ccc(NC(=O)CCN4CCOCC4)cc3C(=O)N([C@H](C)CO)C[C@H]2C)cc1	10
CCC(C)Cn1cnc2c(Sc3c([N+](=O)[O-])ncn3C)nc(N)nc21 (stereo unspecified)	-10
CO[C@@H]1CN(C)C(=O)c2cc(NC(=O)C3CCC3)ccc2OC[C@H](C)N(C(=O)NC(C)C)C[C@H]1C	-3

Main list, from the first entry:
SMILES	Yeast UUG start
COc1ccc(S(=O)(=O)N(C)C[C@H]2OCc3ccccc3-c3c(n(C)c4ccccc34)C(=O)N([C@H](C)CO)C[C@@H]2C)cc1	4
COc1ccc(C#Cc2ccc([C@H]3[C@@H](CO)N4CCCCN(C)C[C@@H]34)cc2)cc1	-4
Cc1ccc(S(=O)(=O)N(C)C[C@@H]2Oc3ccc(NC(=O)CCN4CCOCC4)cc3C(=O)N([C@H](C)CO)C[C@H]2C)cc1	10
CCC(C)Cn1cnc2c(Sc3c([N+](=O)[O-])ncn3C)nc(N)nc21 (stereo unspecified)	-10
CO[C@@H]1CN(C)C(=O)c2cc(NC(=O)C3CCC3)ccc2OC[C@H](C)N(C(=O)NC(C)C)C[C@H]1C	-3
O=C(C[C@H]1CC[C@H]2[C@@H](COC[C@@H](O)CN2C(=O)c2cnccn2)O1)NCc1ccccc1	-11
COc1cccc(C(=O)Nc2ccc3c(c2)C(=O)N(C)[C@@H]2CC[C@H](CC(=O)NCc4ccccc4F)O[C@@H]2CO3)c1	0
Cc1cccc(-c2ccc([C@@H]3[C@H]4CN(C(=O)c5ccc6c(c5)OCO6)CCCCN4[C@H]3CO)cc2)c1	27
Cn1cnc(S(=O)(=O)N2CCCCN3[C@H](CO)[C@@H](c4ccc(C#CC5CCCC5)cc4)[C@@H]3C2)c1	27
C[C@H]1CN([C@@H](C)CO)C(=O)Cc2cc(NC(=O)Nc3ccc(C(F)(F)F)cc3)ccc2O[C@@H]1CN(C)Cc1ccncc1	-6
C[C@H](CO)N1C[C@H](C)[C@@H](CN(C)Cc2ccc(C(F)(F)F)cc2)Oc2ccc(NS(=O)(=O)c3ccccc3)cc2CC1=O	2
O=C(C[C@H]1C[C@H]2c3cc(NC(=O)c4cccnc4)ccc3O[C@H]2[C@@H](CO)O1)NCc1ccncc1	-2
COc1cccc(CN2[C@H](CO)[C@H]3c4ccccc4N(C(=O)CC(F)(F)F)C[C@H]32)c1	5
C[C@H]1CN([C@@H](C)CO)C(=O)c2cc(NC(=O)Cn3cnnn3)ccc2O[C@@H]1CN(C)Cc1ccc(C(=O)Nc2ccccc2N)cc1	-11
C[C@H](O)C#Cc1ccc([C@@H]2[C@@H](CO)N3CCCCN(C(=O)c4ccc(F)cc4)C[C@@H]23)cc1	3
CO[C@H]1CN(C)C(=O)c2cc(NC(=O)C3CC3)ccc2OC[C@@H](C)N(C(=O)CN(C)C)C[C@H]1C	2
COc1ccccc1CN1CC[C@@H]2[C@@H](CO)Nc3ccc(C#Cc4ccccc4)cc3[C@@H]21	15
COc1ccccc1NC(=O)N1CCCCN2[C@@H](CO)[C@H](c3ccc(-c4ccccc4)cc3)[C@@H]2C1	3
CCCNC(=O)C[C@H]1C[C@@H]2c3cc(NC(=O)C4CCC4)ccc3O[C@@H]2[C@H](CO)O1	-10
C[C@H](CO)N1C[C@H](C)[C@H](CN(C)C(=O)Nc2ccccc2)Oc2c(NC(=O)C3CCCCC3)cccc2C1=O	3
Cc1ccccc1S(=O)(=O)N1CC[C@H]2[C@H](CO)Nc3ccc(-c4ccccc4F)cc3[C@H]21	-12
C[C@@H]1CN([C@H](C)CO)C(=O)Cc2cc(NS(=O)(=O)c3ccc(Cl)cc3)ccc2O[C@@H]1CN(C)C(=O)Nc1ccccc1	15
COCCNC(=O)C[C@H]1CC[C@H]2[C@@H](COC[C@@H](O)CN2S(=O)(=O)c2ccccc2C)O1	10
CO[C@@H]1CN(C)C(=O)c2cc(NC(=O)c3ccccc3)ccc2OC[C@H](C)N(C)C[C@H]1C	-1
O=C(Nc1ccccc1F)N1CCCCN2[C@H](C1)[C@H](c1ccc(C#Cc3ccccc3)cc1)[C@@H]2CO	12
C[C@H](CO)N1C[C@H](C)[C@@H](CN(C)C(=O)NC2CCCCC2)Oc2ccc(NC(=O)CCN3CCOCC3)cc2C1=O	7
N#Cc1cccc(-c2ccc3c(c2)[C@H]2[C@H](CCN2C(=O)c2ccncc2)[C@@H](CO)N3)c1	1
O=S(=O)(c1ccc(F)cc1)N1C[C@H]2[C@@H](c3ccccc31)[C@@H](CO)N2Cc1ccccc1Cl	2
CCC(=O)N1CC[C@@H]2[C@H]1c1cc(-c3cccc(C#N)c3)ccc1N[C@@H]2CO	17
O=C(c1ccccc1)N1C[C@@H]2[C@H](c3ccccc31)[C@H](CO)N2C(=O)CN1CCOCC1	-9
CO[C@@H]1CN(C)C(=O)c2ccc(NS(=O)(=O)c3cccc(F)c3)cc2OC[C@@H](C)N(C(=O)Cc2cccnc2)C[C@@H]1C	8
C[C@H](CO)N1C[C@H](C)[C@H](CN(C)Cc2ccncc2)Oc2c(NC(=O)C3CCCCC3)cccc2C1=O	-15
COCCNC(=O)C[C@H]1C[C@@H]2c3cc(NC(=O)NC4CCCC4)ccc3O[C@@H]2[C@@H](CO)O1	-3
Cc1ccccc1S(=O)(=O)N1CC[C@@H]2[C@@H](CO)Nc3ccc(-c4ccc(F)cc4)cc3[C@@H]21	2
COc1ccccc1-c1ccc([C@H]2[C@H](CO)N3CCCCN(C(=O)c4cccnc4)C[C@@H]23)cc1	4
CN1C[C@H]2[C@@H](c3ccccc31)[C@@H](CO)N2C(=O)C1CCCC1	-11
O=C(Nc1ccccc1)N1C[C@H]2[C@@H](c3ccccc31)[C@@H](CO)N2CC1CCCC1	17
CN1[C@@H]2Cn3c(ccc(/C=C/c4ccccc4)c3=O)[C@H]1[C@@H](C(=O)NC1CCC1)[C@@H]2CO	11
CCCNC(=O)N1C[C@@H](C)[C@@H](OC)CN(C)C(=O)c2cc(NC(=O)CC)ccc2OC[C@H]1C	-14
O=C(C1CCC1)N1CCCCN2[C@H](CO)[C@H](c3ccc(-c4ccncc4)cc3)[C@H]2C1	-17

Sorted by value in Yeast UUG start (low to high): 3 of the compounds above.
SMILES	Yeast UUG start
C[C@H](CO)N1C[C@H](C)[C@H](CN(C)Cc2ccncc2)Oc2c(NC(=O)C3CCCCC3)cccc2C1=O	-15
COc1ccccc1CN1CC[C@@H]2[C@@H](CO)Nc3ccc(C#Cc4ccccc4)cc3[C@@H]21	15
CCC(=O)N1CC[C@@H]2[C@H]1c1cc(-c3cccc(C#N)c3)ccc1N[C@@H]2CO	17

(further entries)
SMILES	Yeast UUG start
COCC(=O)N1[C@H](CO)[C@@H]2c3ccccc3N(C(=O)Nc3cc(F)ccc3F)C[C@@H]21	2
CC(C)(O)C#Cc1ccc([C@H]2[C@@H](CO)N3CCCCN(C(=O)c4ccc(F)cc4)C[C@H]23)cc1	7
O=C(C[C@H]1CC[C@@H]2[C@H](COC[C@@H](O)CN2C(=O)Nc2cccc(F)c2)O1)NCCCN1CCOCC1	-2
O=C(CC(F)(F)F)N1C[C@H]2[C@@H](c3ccccc31)[C@@H](CO)N2C(=O)C1CCCCC1	22
OC[C@H]1[C@H](c2ccc(-c3ccccc3)cc2)[C@H]2CN(Cc3cncnc3)CCCCN21	11
Cc1noc(C)c1NC(=O)Nc1ccc2c(c1)C(=O)N([C@H](C)CO)C[C@@H](C)[C@H](CN(C)Cc1ccc3c(c1)OCO3)O2	-7
C[C@@H]1CN([C@@H](C)CO)C(=O)c2cc(NC(=O)CCN3CCOCC3)ccc2O[C@@H]1CN(C)C(=O)Nc1ccc(F)cc1	-10
C[C@@H]1CN([C@H](C)CO)C(=O)c2cccc(NC(=O)c3ccc(-c4nccs4)cc3)c2O[C@H]1CN(C)S(=O)(=O)c1ccc(F)cc1	14
C[C@@H]1CN([C@H](C)CO)C(=O)c2cc(NC(=O)C3CCCCC3)ccc2O[C@H]1CN(C)Cc1ccc(Cl)c(Cl)c1	0
C[C@H](CO)N1C[C@H](C)[C@H](CN(C)Cc2ccc(Cl)c(Cl)c2)Oc2ccc(NC(=O)C3CCCCC3)cc2C1=O	-12
C[C@@H]1CN([C@@H](C)CO)C(=O)c2cc(NC(=O)Nc3ccc(F)cc3)ccc2O[C@H]1CN(C)Cc1ccc(C(=O)O)cc1	-1
C[C@@H]1CN([C@H](C)CO)C(=O)c2cccc(NC(=O)Nc3ccc4c(c3)OCO4)c2O[C@H]1CN(C)Cc1ccc(Cl)c(Cl)c1	0
O=C(Nc1cc(F)ccc1F)N1CCCCN2[C@H](CO)[C@H](c3ccc(-c4cccnc4)cc3)[C@@H]2C1	-6
C[C@H](CO)N1C[C@H](C)[C@H](CN(C)Cc2ccc3c(c2)OCO3)Oc2ccc(NC(=O)Nc3cccc4ccccc34)cc2CC1=O	12
CN(C)CC(=O)N1CCCCN2[C@H](C1)[C@H](c1ccc(-c3cccnc3)cc1)[C@@H]2CO	-16
COc1ccc(-c2ccc3c(c2)[C@@H]2[C@@H](CCN2C(=O)NC2CCCCC2)[C@H](CO)N3C)cc1	-6
C[C@@H]1CN([C@@H](C)CO)C(=O)c2cc(NC(=O)c3ccncc3)ccc2O[C@@H]1CN(C)S(=O)(=O)c1ccc(Cl)cc1	-5
OC[C@@H]1[C@@H](c2ccc(Br)cc2)[C@H]2CN(Cc3ccccn3)CCCCN12	-38
C[C@H](CO)N1C[C@H](C)[C@@H](CN(C)S(=O)(=O)c2ccc(Cl)cc2)Oc2c(NC(=O)c3ccncc3)cccc2C1=O	-4
O=C(C1CCC1)N1C[C@@H]2[C@H](c3ccccc31)[C@H](CO)N2C(=O)Cc1ccccn1	111*

Another view of 2 compounds above:
C[C@H](CO)N1C[C@H](C)[C@H](CN(C)Cc2ccc3c(c2)OCO3)Oc2ccc(NC(=O)Nc3cccc4ccccc34)cc2CC1=O
  Yeast UUG start = 12
O=C(C1CCC1)N1C[C@@H]2[C@H](c3ccccc31)[C@H](CO)N2C(=O)Cc1ccccn1
  Yeast UUG start = 111*

(continued)
SMILES	Yeast UUG start
CCS(=O)(=O)N1CCCCN2[C@H](CO)[C@@H](c3ccc(-c4ccc(C(=O)N(C)C)cc4)cc3)[C@H]2C1	2
C[C@H](CO)N1C[C@H](C)[C@H](CN(C)S(=O)(=O)c2ccc(Cl)cc2)Oc2c(NC(=O)C3CCOCC3)cccc2C1=O	16
CNC(=O)C[C@@H]1CC[C@H]2[C@@H](COC[C@H](O)CN2C(=O)c2ccccn2)O1	-13
CCC(=O)NC[C@H]1[C@@H](c2ccc(-c3cccc(F)c3)cc2)[C@@H](CO)N1C(=O)CC	26
CN1C[C@H]2[C@@H](c3ccccc31)[C@H](CO)N2C(=O)Nc1cccc(F)c1	-18
C[C@H]1CN([C@@H](C)CO)C(=O)c2cc(NS(=O)(=O)c3cn(C)cn3)ccc2O[C@H]1CN(C)Cc1ccc(-c2ccccc2)cc1	-13
O=C(Cc1ccccc1)N1C[C@@H]2[C@H](c3ccccc31)[C@@H](CO)N2C(=O)C1CCCCC1	42
CO[C@@H]1CN(C)C(=O)c2ccc(NC(=O)C3CC3)cc2OC[C@@H](C)N(CC2CC2)C[C@@H]1C	-10
Cc1ccccc1S(=O)(=O)N1CC[C@@H]2[C@H](CO)Nc3ccc(-c4cccc(F)c4)cc3[C@@H]21	-1
C[C@@H]1CN([C@@H](C)CO)C(=O)c2cc(NS(=O)(=O)c3ccc(Cl)cc3)ccc2O[C@@H]1CN(C)C(=O)Nc1ccc2c(c1)OCO2	7
COc1ccccc1CNC(=O)C[C@H]1CC[C@H]2[C@@H](COC[C@@H](O)CN2C(=O)Nc2ccc(C(F)(F)F)cc2)O1	6
O=C(c1ccccc1F)N1CC[C@@H]2[C@H](CO)Nc3ccc(-c4ccc(F)cc4)cc3[C@@H]21	-15
CCCC(=O)Nc1ccc2c(c1)C(=O)N(C)C[C@H](OC)[C@@H](C)CN(CCc1ccccc1)[C@H](C)CO2	4
O=C(Nc1ccccc1F)N1CCCCN2[C@H](CO)[C@@H](c3ccc(C4=CCCC4)cc3)[C@H]2C1	11
COCC(=O)N1CCCCN2[C@H](CO)[C@@H](c3ccc(-c4ccc(C)cc4)cc3)[C@H]2C1	4
COc1ccc(C#Cc2cnc3c(c2)C(=O)N([C@H](C)CO)C[C@H](C)[C@H](CN(C)Cc2cccc(C(F)(F)F)c2)O3)cc1OC	29
CO[C@H]1CN(C)C(=O)c2ccc(NC(=O)c3nc4ccccc4s3)cc2OC[C@H](C)N(Cc2cncnc2)C[C@H]1C	2
CC(C)NC(=O)Nc1ccc2c(c1)CC(=O)N([C@H](C)CO)C[C@@H](C)[C@H](CN(C)C(=O)NC(C)C)O2	-6
CO[C@@H]1CN(C)C(=O)c2ccc(NC(=O)C3CCOCC3)cc2OC[C@@H](C)N(CC2CCOCC2)C[C@H]1C	-4
COCC(=O)Nc1ccc2c(c1)[C@H]1C[C@@H](CC(=O)N3CCc4ccccc4C3)O[C@H](CO)[C@H]1O2	8
CO[C@@H]1CN(C)C(=O)c2ccc(NC(=O)C3CC3)cc2OC[C@H](C)N(C(=O)CN2CCOCC2)C[C@@H]1C	-4
C[C@@H]1CN([C@H](C)CO)C(=O)c2cc(NC(=O)NC3CCCCC3)ccc2O[C@@H]1CN(C)Cc1ccc(C(F)(F)F)cc1	-2
O=C(c1ccncc1)N1C[C@H]2[C@@H](c3ccccc31)[C@H](CO)N2C(=O)c1ccncc1	-4
CC(C)CN(C[C@@H]1[C@@H](c2ccccc2)[C@H](CO)N1C(=O)C1CCC1)C(=O)C1CC1	-5
COc1ccccc1NC(=O)N(C)C[C@H]1OCc2ccccc2-c2c(n(C)c3ccccc23)C(=O)N([C@@H](C)CO)C[C@@H]1C	10
COc1ccccc1NC(=O)N1C[C@H](O)COC[C@H]2O[C@@H](CC(=O)NCCc3ccccc3)CC[C@@H]21	9
Cc1ccc(-c2ccc([C@@H]3[C@H](CO)N4CCCCN(C(=O)c5ccc(F)cc5)C[C@@H]34)cc2)cc1	-5
